# Anthrax LT inh: inhibitors of anthrax lethal toxin internalization; Cells, anthrax lethal toxin internalization, FRET ratio (460/530); Potency, µM (highest dose often 40 µM), inactives show at the top dose activity change, negative = inhibition, actives largely listed as inhibitors; 0.67% of 70,000 active; AID 912; active = well fitted falling ratio curve with the 530 nm signal flat; inconclusive = other ratio curves, or a change in one channel alone; inactive = flat curves in the ratio and both channels; the % refers to the ratio; also: % is scaled to controls: 0 for no effect and ±100 for the full control effect; nearly all actives have a fitted effect of over 50% in size; tested in ME-180 cells; beta-lactamase reporter
# Prx2 Sm inh: inhibitors of Schistosoma mansoni peroxiredoxin 2. AID 448. Potency, µM. 0.07% of 65,000 active. S. mansoni Prx2 activity coupled to TGR/GSH (TGR is thioredoxin glutathione reductase), NADPH fluorescence loss, qHTS; some inactives read as strong as hits; active means full or partial inhibition curve with a strong effect at the top dose; inconclusive means weaker partial or single-point curve; inactive means no accepted curve; also: series up to 57 µM; many of its hits are not listed in these tables
#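 Prx2 activity was followed as the loss of NADPH fluorescence (ex 365/em 450 nm), read every 30 sec for 8 min after H2O2 start. The enzyme mix (50 nM Prx2, 25 nM TGR, GSH, NADPH; pH 7.4 phosphate buffer) was incubated with compound for 15 min at room temperature first.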
# An asterisk follows results filed as active; ? = inconclusive; · = no result given; & = joins results of further samples; [ ] = another dose, or the depositor's remark. Potency is read from the fitted curve at half-maximal effect. These rows are one share of the data. The share of hits here may be higher or lower than overall.
SMILES | Anthrax LT inh | Prx2 Sm inh
Cc1nccn1CC(O)COC1CCCCC1 (centres undefined) | 2.8% | >57
O=C(Nc1cccc(Cl)c1)N1CCN(Cc2ccccc2)CC1 | -16.3% | >57
c1cncc(-c2nc3cc(Cc4ccc5oc(-c6cccnc6)nc5c4)ccc3o2)c1 | 9.0% | >57
CC(C)c1[nH]nc2c1C(c1cccnc1)C(C#N)=C(N)O2 (centres undefined) | 7.8% | >57
CC(C)n1c(N2CCN(C(=O)N3CCCCC3)CC2)nc2ccccc21 | -13.5% | >57
CC12CCCCC1=[N+]([O-])CN2O (centres undefined) | -13.3% | >57
CCc1cc2c(=O)n(C(C)C(=O)OC3CCCCC3)cnc2s1 (centres undefined) | -4.4% | >57
COc1ccc(-c2nnn(CC(=O)OC3CCCCC3)n2)cc1OC | 3.3% | >57
O=C(CSc1nc2ccccc2[nH]1)NCCCn1ccnc1 | -2.4% | >57
CN(C)c1cccc(C(=O)Nc2cccc(F)c2)c1 | · | >57
[C-]#[N+]/C(C#N)=C\c1cc(C(C)(C)C)c(O)c(C(C)(C)C)c1 | 0.1µM* | ·
COc1cccc(C2C(C#N)=C(N)Oc3cc(C)n(Cc4ccccn4)c(=O)c32)c1OC (centres undefined) | 11.3% | >57
O=c1c(-c2ccccc2)nc2cncnc2n1C1CC1 | -6.2% | >57
O=C(Cc1n[nH]c(=O)c2ccccc12)OCC(=O)c1ccc2c(c1)OCCO2 | -19.6% | >57
COc1cccc(CN2CCNC(=O)C2CC(=O)O)c1OC (centres undefined) | 4.4% | >57
CCc1c(O)nc(SCC(=O)Nc2ccccc2)n(-c2ccccc2)c1=O | · | >57
COc1ccc(C2C(C(=O)Nc3cccc(C)n3)CCC(=O)N2c2ccc(OC)cc2)cc1 (centres undefined) | -4.4% | >57
CN(C)NC(=O)CCC(=O)O | -1.3% | ·
CCn1c(SCC(=O)Nc2ccccc2F)nc2c(c1=O)SC(C)C2 (centres undefined) | -8.6% | >57
O=C(CN(Cc1ccco1)C(=O)CCC(=O)Nc1ccccn1)NCCc1ccccc1 | ? | >57
O=C(Nc1ccc(Br)cc1)N1CCCCCCC1 | -5.7% | >57
c1csc(CSc2nc3ccccc3s2)c1 | -18.2% | >57
COC(=O)Nc1nc2ccccc2[nH]1 | -17.1% | ·
Cc1ccc(-c2nn(C)c(=O)c3ccccc23)cc1S(=O)(=O)N1CCOCC1 | 16.7% | >57
COc1ccccc1C(=O)NCCn1cc(SCC(=O)Nc2nnc(C)s2)c2ccccc21 | ? | >57

# (next part)
SMILES | Anthrax LT inh | Prx2 Sm inh
NNC(=O)[C@@H](O)[C@H](O)C(=O)NN | -10.9%[8 µM] | >57
COc1ccc(CCN2C(=O)C3C4C=CC(C4)C3C2=O)cc1OC (centres undefined) | · | >57
O=C(Nc1ccc(F)c(F)c1)c1ccc2c(c1)OCO2 | -16.9% | >57
CC(=O)N1CCC2(CC1)CN(c1ccncc1)C2 | 1.2% | >57
COc1ccc(CNC(=O)CN(CC2CCCO2)C(=O)CNS(=O)(=O)c2ccccc2)cc1 (centres undefined) | -0.6% | >57
O=C(c1ccc2c(c1)ncn2C1CCCCC1)N1CCC2(CC1)OCCO2 | -15.6% | >57
COC(=O)CSc1nnc(-c2cnccn2)n1C | -3.3% | >57
Cc1cc2c(s1)c1cnn(CC(=O)NCCc3ccccc3)c(=O)c1n2C | 4.9% | >57
COc1ccccc1-c1ccc(C(=O)O)o1 | -2.8% | >57
Cc1cc(C)cc(N2CC34C=CC(O3)C(C(=O)OCC(=O)NCc3ccco3)C4C2=O)c1 (centres undefined) | -5.2% | >57
O=C(O)CCC(=O)c1ccc(Cl)cc1 | -1.4%[8 µM] | >57
O=C(Cn1cnc2c(cnn2-c2ccc(Cl)cc2)c1=O)NCCc1ccccc1 | 9.5% | >57
Cc1cc(C(=O)CSc2nnc(-c3cccs3)o2)c(C)n1-c1ccccc1 | -0.7% | >57
c1ccc(-n2nnnc2NCCc2c[nH]c3ccccc23)cc1 | -8.6% | >57
CC(=O)N1CCc2cc(S(=O)(=O)NCCC(=O)Nc3ccc4c(c3)OCCO4)ccc21 | -2.0% | >57
O=C(Oc1ccccc1)c1cccc2cccnc12 | 9.4% | >57
Cc1ccc(C(C(=O)NC2CCCCC2)N(CC2CCCO2)C(=O)CNC(=O)c2ccco2)cc1 (centres undefined) | -9.7% | >57
O=C(O)CNC(=O)C1COc2ccccc2O1 (centres undefined) | -2.1% | >57
O=C(Nc1nnc(CC(=O)N2CCOCC2)s1)C1COc2ccccc2O1 (centres undefined) | 3.3% | >57
CCN(CC)C[C@@H](O)CN1CCCCc2nc(C)c(C)cc21 | 9.6%[0.32 µM] | ·
[O-][N+](=Nc1ccccc1)c1ccccc1 | -6.3% | ·
CC(C)C(=O)NC(c1ccco1)c1ccc2cccnc2c1O (centres undefined) | ? | >57
O=C(CN1C(=O)c2ccccc2S1(=O)=O)Nc1ccc(S(=O)(=O)N2CCCC2)cc1 | ? | >57
CC(C)(C)NS(=O)(=O)c1cccc2nsnc12 | -16.8% | >57
Cc1cc(C)c(NC2=NCC(=O)N2C2CCCCC2)c(C)c1 | -4.7% | >57

# More compounds
SMILES | Anthrax LT inh | Prx2 Sm inh
CCOC(=O)Cn1c(=NC(=O)CSC(C)=O)sc2cc(OC)ccc21 | 11.4% | >57
CCCC[C@@H]1C[C@H]1C(NP(=O)(c1ccccc1)c1ccccc1)c1ccc(Cl)cc1 (some centres undefined) | -21.7% | >57
O=S(=O)(Nc1ncn[nH]1)c1ccc2ccccc2c1 | -1.4% | >57
CCc1ccccc1NC(=O)CSc1nnc(-c2ccco2)n1N | -5.7% | >57
CCc1ccc(N2CCN(C(=O)c3ccc(OC)c(OC)c3)CC2)cc1 | -10.7% | >57
CN(C(=O)c1ccncc1)c1nnc(-c2ccccn2)s1 | -4.7% | >57
CCn1c(-c2cc(Br)cc(OC)c2O)nc2cc(S(=O)(=O)N(C)C)ccc21 | -12.3% | >57
CC(=O)c1cccc(NC(=O)NCc2ccco2)c1 | · | >57
c1ccc(C2CO2)cc1 (centres undefined) | -8.0% | ·
COc1ccccc1CNC(=O)CSc1nc(-c2ccccc2)cn1N | 3.2% | >57
COc1ccccc1-c1noc(-c2cc(OC)c(OC)c(OC)c2)n1 | -8.9% | >57
Cc1nn(-c2ccccc2)c(C)c1NC(=O)c1cccs1 | -7.0% | >57
Cc1n[nH]c(C)c1CCc1nc2c3ccccc3nc(SCC(N)=O)n2n1 | 11.9% | >57
Cc1nc(SCC(=O)c2ccccc2)n[nH]1 | 3.2% | >57
Cc1nc(CC(=O)O)c(-c2ccccc2)s1 | ? | >57
CC(=O)N1CCc2cc(NC(=O)c3ccc(C)cc3)ccc21 | · | >57
Cc1ccc(C2CC(c3ccccc3OC(F)F)Nc3ncnn32)cc1 (centres undefined) | 0.1% | >57
COC(=O)C1=C(C)NC(=O)CC1c1ccc(C(=O)OC)cc1 (centres undefined) | 13.7% | ·
CC1CC(=O)C2=C(C1)Nc1ncnn1C2c1ccccc1 (centres undefined) | 3.8% | >57
Cc1cc(C(=O)Nc2c(F)cc(F)cc2Br)c(C)o1 | ? | >57
O=C1C2C3c4ccccc4C(c4ccccc43)C2C(=O)N1Cc1ccco1 (centres undefined) | -4.8% | >57
COCc1cc(=O)[nH]c(/N=C(\N)Nc2ccc(Oc3ccccc3)cc2)n1 | -3.6% | >57
O=C1CNC(=O)/C1=C\N1CCCCC1 | -8.2% | >57
CC(=O)Nc1ccc(S(=O)(=O)N(C)c2ccccc2)cc1 | -15.1% | ·
CCN(CC)CCn1c(NCc2ccc(OC)cc2)nc2ccccc21 | -5.2% | ·

# Later entries
SMILES | Anthrax LT inh | Prx2 Sm inh
O=C(NCCN1CCOCC1)c1cc(-c2ccc(F)cc2)on1 | -19.7% | >57
O=C(c1ccc2c(=O)n(Cc3ccc4c(c3)OCO4)c(=S)[nH]c2c1)N1CCC2(CC1)OCCO2 | 2.3% | >57
CCOC(=O)N1CCC(NC(=O)c2cnn3c(C(F)(F)F)cc(-c4cccc(OC)c4)nc23)CC1 | -6.7% | >57
CC(NC(=O)c1ccco1)C(c1cccs1)N1CCN(c2ccccc2)CC1 (centres undefined) | 0.7% | >57
COc1ccc(C(=O)N2CCC3(CC2)CN(C(=O)NC(C)C)C3)cc1 | 6.3% | >57
O=C(NCc1ccco1)c1cnn2c(C(F)(F)F)cc(-c3ccccc3)nc12 | 3.0% | >57
COCCn1c(CNc2ccc(F)cc2)nnc1SCC(=O)Nc1ccc(OC)cc1OC | 11.8% | >57
CC(C)(C)OC(=O)N1CCCC1C(=O)N1CCCC1C(=O)N1CCCC1C(=O)O (centres undefined) | 11.3% | >57
Cc1ccc(C(=O)NCCNS(=O)(=O)c2ccccc2)cc1 | -13.7% | ·
O=C(c1ccco1)N1CCN(c2ncnc3scc(-c4cccs4)c23)CC1 | ? | >57
O=C(NCc1ccc2c(c1)OCO2)C1CC(=O)N(C2CCCC2)C1 (centres undefined) | 12.2% | >57
O=C1c2ccccc2C(Nc2cccnc2)N1Cc1ccc2c(c1)OCO2 (centres undefined) | 0.3% | >57
Cc1ccc(C)c(S(=O)(=O)N2CCN(CC(=O)NC(=O)NCc3ccccc3)CC2)c1 | ? | >57
CCn1cc(C(=O)NCCCN2CCC(C)CC2)c(=O)c2cc(S(=O)(=O)N3CCCC3)ccc21 | -27.1% | >57
COc1cc(C2NC(=O)NC(O)(C(F)(F)F)C2C(=O)c2cccs2)ccc1O (centres undefined) | -10.1% | >57
COC(=O)C1=C(C)N(Cc2ccccc2)[C@]23O[C@](C(=O)OC)(C(=O)N2C1c1ccccc1)C1C(=O)N(c2ccccc2)C(=O)C13 (some centres undefined) | ? | ·
COC(=O)c1oc2ccc(Br)cc2c1NC(C)=O | -15.9% | >57
O=C(NCCNC(=O)c1ccc(Br)o1)c1ccc(Br)o1 | 4.7% | ·
O=C(NCCCN1CCN(c2ccccc2)CC1)Nc1ccccc1C(F)(F)F | -13.8% | >57
COc1cccc(-c2ccc3ncnc(NCc4cnc(C)cn4)c3c2)c1 | -16.4% | >57
Cc1ccc2oc3c(c(=O)c2c1)C(c1cccc(Br)c1)N(Cc1ccco1)C3=O (centres undefined) | 5.3% | >57
O=C(Oc1ccc(-c2nc(-c3ccccn3)no2)cc1)c1ccccc1 | · | >57
Nc1nc(-c2cccs2)c(NC(=O)c2ccccc2)s1 | ? | >57
CCC(C)N1C(=O)C2C(C(=O)Nc3cccc(OC)c3)C3C=CC2(O3)C1C(=O)NC1CCCCC1C (centres undefined) | 12.5% | >57
CC(=O)N1CCCc2cc(S(=O)(=O)NC(C(=O)NC(C)c3ccccc3)C(C)C)ccc21 (centres undefined) | 4.0% | >57

# Next compounds.
SMILES | Anthrax LT inh | Prx2 Sm inh
COc1cc(C2Nc3ccc4ncccc4c3C3=C2C(=O)CCC3)ccc1O (centres undefined) | 4.6% | >57
O=C(NCCNC(=O)c1cccs1)c1ccco1 | -6.4% | >57
CCCn1c(=O)c2ccccc2n2c(SCC(=O)c3ccccc3)nnc12 | -15.7% | >57
O=C1CC(c2ccccc2)CC(O)=C1C=NCCCO (centres undefined) | -4.6% | ·
OC1CCN(c2ncnc3c2nnn3Cc2c(F)cccc2Cl)CC1 | -5.9% | >57
O=C(/C=C/c1ccc(O)c(O)c1)O[C@@H](C(=O)O)[C@@H](OC(=O)/C=C/c1ccc(O)c(O)c1)C(=O)O | ? | ·
CCc1nn(CC(=O)O)c(=O)c2ccccc12 | ? | >57
O=S(=O)(c1ccc(N2CCOCC2)cc1)N1CCOCC1 | 3.1% | >57
COc1cccc2cc(C(=O)N3CCN(C45CC6CC(CC(C6)C4)C5)CC3)c(=O)oc12 | 0.0% | >57
c1ccc(-c2nnc3sc(-c4csc5c4CCCC5)nn23)cc1 | -11.4% | >57
COCCCn1c2nc3ccccc3nc2c2c(=O)n(Cc3ccc(Cl)cc3)c(C)nc21 | ? | >57
Cn1c(=O)n(C)c(=O)n(CC(=O)N2CCCCC2)c1=O | 4.8% | >57
Cc1ccc2cc(C#N)c(N3CCCN(C(=O)C4CCCO4)CC3)nc2c1 (centres undefined) | 11.4% | >57
O=C1NC(=O)C(c2ccccc2[N+](=O)[O-])=C1Nc1ccc(O)c(Cl)c1 | ? | >57&>57
COCCn1c(SCC(=O)N2CCCC2)nnc1C(C)C | 1.5% | >57
Cc1c(NC(=O)CSc2nnc3sc4ccccc4n23)c(=O)n(-c2ccccc2)n1C | 4.3% | >57
CCOc1ccccc1N1CCN(S(=O)(=O)CC)CC1 | -19.0% | ·
CC(CCCC(C)(C)O)NCCO (centres undefined) | 1.8% | >57
C=CCn1c(O)c(C(C)=NCCN2CCOCC2)c(=O)[nH]c1=O | 8.3% | >57
CCOc1ccc(NC(=O)C2CSC(c3ccncc3)=N2)cc1 (centres undefined) | ? | >57

# Among those listed so far, these have a tert-butyl group:
SMILES | Anthrax LT inh | Prx2 Sm inh
[C-]#[N+]/C(C#N)=C\c1cc(C(C)(C)C)c(O)c(C(C)(C)C)c1 | 0.1µM* | ·
CC(C)(C)NS(=O)(=O)c1cccc2nsnc12 | -16.8% | >57
CC(C)(C)OC(=O)N1CCCC1C(=O)N1CCCC1C(=O)N1CCCC1C(=O)O (centres undefined) | 11.3% | >57

# Screening results: PubChem BioAssay, National Center for Advancing Translational Sciences (NCATS)
